# eIF4H FP inh: inhibitors of RNA binding by human eIF4H | Q15056 | eIF4H fluorescence polarization binding assay | inhibition, % at 35 µM | actives 0.94% (n = 290,000) | AID 2012;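 active means 50% or more with normal probe brightness, or confirmed in later tests; about a fifth of its hits are not listed in these tables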;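 further: calls also rest on retests at 20 µM and on dose response follow-up; 0% = protein and probe with vehicle and 100% = probe without protein; strong numbers were not always called active; many hits fall short of the cut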
# Rce1 inh: yeast Ras-converting enzyme inhibition; Q03530; yeast membranes, quenched prenylated peptide cleavage fluorescence; calls only; actives 0.27% (n = 290,000); AID 2563;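 active means fall in fluorescence gain of 50% or more versus controls, with final raw signal at or below 3038400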;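 further: plate controls were neutral control wells for no effect and wells lacking membranes for full effect; tested at 10 µM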
# CSC inhib: blocks cancer stem cells. actives 1.1% (n = 300,000). cancer stem cell-like cells viability, luminescence. inhibition, % at 7.5 µM;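 active means mean at 75% or more and at least half the replicates too; tested in HMLE shEcad cells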;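 further: 0% = median of negative and 100% = median of positive control wells; the first replicate is given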
# Env fusion inh: inhibitors of HIV Env-mediated cell fusion | HeLa-JRFL Env/CEM21 cell fusion, luciferase | inhibition, % at 12.3 µM | actives 1.1% (n = 360,000) | AID 651610;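 active means mean replicate inhibition score of at least 50 and every replicate individually at or above 50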;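 further: 0% = plate neutral controls and 100% = maraviroc near 300 nM; one replicate is shown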
# PABP FP inh: PABP-poly(A) binding inhibition; AID 2014; PABP-poly(A) RNA binding, fluorescence polarization; inhibition, % at 35 µM; P11940; actives 1% (n = 290,000);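 active means 50% or more with normal probe brightness, or confirmed in later tests; about a fifth of its hits are not listed in these tables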;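 further: calls also rest on retests at 20 µM and on dose response follow-up; controls were probe without protein and protein plus probe with vehicle; some compounds called inactive have numbers as strong as hits; many hits fall short of the cut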
# Target sequence (P11940 whole entry, looked up): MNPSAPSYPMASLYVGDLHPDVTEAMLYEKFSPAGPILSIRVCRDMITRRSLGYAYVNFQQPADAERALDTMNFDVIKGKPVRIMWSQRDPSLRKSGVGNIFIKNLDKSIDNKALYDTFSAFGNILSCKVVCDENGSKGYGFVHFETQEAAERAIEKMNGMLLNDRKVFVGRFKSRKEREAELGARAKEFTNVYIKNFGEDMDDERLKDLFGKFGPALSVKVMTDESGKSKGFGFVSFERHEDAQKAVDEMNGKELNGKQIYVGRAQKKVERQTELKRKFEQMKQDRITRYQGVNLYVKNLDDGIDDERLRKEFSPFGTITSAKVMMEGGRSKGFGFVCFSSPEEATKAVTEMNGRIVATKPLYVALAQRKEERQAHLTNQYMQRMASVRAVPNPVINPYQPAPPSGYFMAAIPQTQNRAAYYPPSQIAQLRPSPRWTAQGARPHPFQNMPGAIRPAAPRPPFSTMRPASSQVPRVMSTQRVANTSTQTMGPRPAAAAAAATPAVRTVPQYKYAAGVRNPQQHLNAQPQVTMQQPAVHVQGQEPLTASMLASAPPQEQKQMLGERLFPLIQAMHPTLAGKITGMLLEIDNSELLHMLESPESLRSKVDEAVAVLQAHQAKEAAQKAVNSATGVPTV
# MT1-MMP act inh: blocks activation of human MT1-MMP. HT1080 RFP-PRO-GFP cells, GFP/RFP ratio fluorescence, overnight; percent of plate control window, DMSO zero. actives 0.061% (n = 360,000). P50281. GFP/RFP ratio change, % at 20 µM. AID 651647;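 active means GFP/RFP ratio change of at least 30% with cell ATP level not reduced by more than half and red fluorescence within 50% of control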; further: strong numbers were not always called active
#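 Read-out: GFP/RFP fluorescence ratio; Test system: RFP-PRO-GFP reporter HT1080 cells; Compound dosing: single-point 20 µM compound, 1% DMSO; Times: overnight compound exposure at 37 °C.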
# Yeast UUG start: yeast start codon fidelity modulation. activity score, % at 18.7 µM. S. cerevisiae UUG-firefly luciferase reporter, luminescence/redox ratio. actives 0.13% (n = 350,000). AID 602363;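 active means replicate mean at a twofold rise or more, about +100% in these data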;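 further: firefly luciferase made from a UUG start codon reports start codon fidelity; reporter light over untreated wells divided by growth signal over untreated wells; some hits fall short of that in this replicate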
# eIF4H FP inh retest: recorded beside eIF4H FP inh, whose call it bears; inhibition, %; compound at 20 µM; confirmation average;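 mean of two retest wells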
# PABP FP inh retest: second read-out of PABP FP inh, no call of its own (marks repeat the call); inhibition, %; compound at 20 µM; confirmation repeats;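 mean of two retest wells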
# MT1-MMP act inh RFP: second read-out of MT1-MMP act inh, no call of its own (marks repeat the call); RFP signal change, %; measured here: RFP expression control read;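 0 = vehicle wells; hits needed this value within 50% of zero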
# * hit, by the source's call; i = inactive; / = no result given; & = joins results of further samples. Some of the compounds tested (hit frequency here may not be typical).
SMILES,eIF4H FP inh,Rce1 inh,CSC inhib,Env fusion inh,PABP FP inh,MT1-MMP act inh,MT1-MMP act inh RFP,Yeast UUG start,others
CCC(Sc1nc2ccsc2c(=O)n1Cc1ccc(C(=O)O)cc1)C(=O)Nc1cccc(OC)c1 (stereo not drawn),/,/,/,3,/,4,-4,1,
CC(NCc1ccc(S(N)(=O)=O)cc1)C(=O)Nc1ccc([N+](=O)[O-])cc1Cl (stereo not drawn),-1,i,7,-16,-3,-4,-1,/,
CC(C)N1CCOC1c1ccccc1 (stereo not drawn),/,/,/,-2,/,1,4,-9,
O=C(Nc1ccccc1)c1ccc2c(c1)CCN2S(=O)(=O)c1ccccc1,8,i,13,-4,-5,1,-7,-11,
CCN(CC)S(=O)(=O)c1ccc(N2CCOCC2)c(NC(=O)C2COc3ccccc3O2)c1 (stereo not drawn),-10,i,9,25,-16,-5,-5,-5,
N#CC(CO)(Cc1ccc(OC(F)F)cc1)c1nc2ccccc2[nH]1 (stereo not drawn),6,i,-2,-7,1,5,-1,/,
Cc1ccc(SCc2cc(=O)[nH]c(N3CCCCC3)n2)cc1,0,i,-16,24,-6,3,-1,-20,
COc1ccccc1C(=O)NCCC(=O)Nc1ccc(S(=O)(=O)N2CCC(C)CC2)cc1,/,/,-1,/,/,3,-3,-19,
O=C(C1CCCN(Cc2ccccc2[N+](=O)[O-])C1)N1CCCCC1 (stereo not drawn),1,i,-12,-3,10,3,2,-16,
O=C(CSc1nnnn1-c1ccccc1)Nc1ncc2c(n1)CC(c1ccco1)CC2=O (stereo not drawn),20,i,-12,/,91,4,5,-15,eIF4H FP inh retest=5;PABP FP inh retest=6
COC(=O)[C@]1(Cc2ccccc2)N[C@H](CN(C)S(=O)(=O)c2ccc(F)cc2)[C@@H]2C(=O)N(Cc3ccccc3)C(=O)[C@@H]21,/,/,/,32,/,1,-2,-27,
Cc1nn(-c2ccccc2)c(Cl)c1/C=C(\C#N)C(=O)NC(C)C,-8,i,38,3,-9,-10,-13,/,
O=C(N/N=C/c1ccccc1OCc1ccccc1)c1cccnc1,13,i,18,-35,-7,-1,3,/,
COc1ccc(-n2c(COc3cccc4ccccc34)nnc2SCC(=O)NCc2ccco2)cc1,-2,i,28,-17,-7,3,-2,-18,
Cc1nc(NCc2ccc3c(c2)OCO3)c2nnn(Cc3ccccc3)c2n1,8,i,-2,40,2,0,-2,-15,
CCOc1ccc2c(c1)C(N(CCN1CCOCC1)C(=O)Nc1ccccc1)CC(C)(C)O2 (stereo not drawn),4,i,/,-3,9,0,1,/,
COCCNC(=S)Nc1ccc(N2CCOCC2)c(S(=O)(=O)Nc2ccc(Cl)cc2)c1,/,/,/,-22,/,1,2,-17,
Cc1ccccc1S(=O)(=O)Cc1ccc(C(=O)O)o1,-4,i,-6,/,18,-1,1,5,
C=CCN1C(=O)C(Cc2ccc(OC)cc2)S/C1=N\N=C\c1cccs1 (stereo not drawn),1,/,-12,/,-3,-2,-1,-9,
CN1C(=O)C(O)(CC(=O)/C=C/c2ccco2)c2ccccc21 (stereo not drawn),4,i,-2,-4,3,0,2,/,
Cc1noc(C)c1NC(=O)Nc1ccc2c(c1)CC(=O)N([C@@H](C)CO)C[C@@H](C)[C@@H](CN(C)C(=O)Nc1cccc3ccccc13)O2,/,/,-7,11,/,5,5,1,
CCN(CC(=O)Nc1ccccc1C(F)(F)F)C(=O)c1ccc2c(c1)NC(=O)CS2,/,/,/,-2,/,3,-5,-5,
O=C(c1cccc(Cl)c1)N1CCCc2ccccc21,-9,i,-8,5,12,4,-1,-10,
Cc1ccccc1NC(=O)c1cccc(NC(=O)c2c(C(=O)O)cccc2[N+](=O)[O-])c1,/,i,-6,-7,/,2,2,/,
CCn1c(CNC(=O)c2ccco2)nnc1SCC(=O)Nc1cc(C(F)(F)F)ccc1Cl,5,i,-9,/,4,-1,3,-16,
CCC(C)N(CC(=O)Nc1cccc(C)c1C)C(=O)CCl (stereo not drawn),-4,i,14,/,-3,-1,6,/,
Cc1cccc(CCN=C(N)NS(=O)(=O)c2ccccc2)c1,-2,i,6,-11,2,4,-1,4,
O=C(NNC(=O)c1ccccc1F)c1ccc(-n2cncn2)c([N+](=O)[O-])c1,/,i,-2,10,/,1,-1,/,
O=C(CN1CCN(Cc2ccccc2)CC1)NNC(=O)c1ccc(Cl)cc1,/,i,14,-12,/,1,3,-13,
O=C(O)/C=C/c1ccc(Cn2ccnc2)cc1,/,i,-5,12&24,/,2&1,6&7,2&-17,
c1ccc(Oc2nc(NCc3ccco3)nc(NCc3ccco3)n2)cc1,-7,i,8,-30,-2,-8,-4,-11,
COc1ccc(N2C(=O)NC3CC2(C)Oc2ccc(Br)cc23)cc1OC (stereo not drawn),-9,i,21,/,4,1,-2,-17,
CS(=O)(=O)n1nc(-c2ccc(Cl)cc2)nc1N,-2,i,-9,-8,-4,2,5,/,
O=C(Nc1ccc2nc(-c3ccco3)[nH]c2c1)c1cccs1,70,i,3,-119,2,2,1,-15,eIF4H FP inh retest=-15;PABP FP inh retest=-21
Cc1ccc(N(C(=O)CS(=O)CC(=O)Nc2ccc(F)cc2)C(C)C(=O)NC(C)(C)C)cc1 (stereo not drawn),3,i,13,3,3,-1,0,/,
COc1cc2sc(C)nc2c2sccc12,-9,i,10,/,-4,-8,-4,6,
CC(C)(C)OC(=O)N[C@@H](Cc1ccccc1)C(=O)N1CCC(C(=O)O)CC1,0,i,3,/,-2,-1,3,3,
CCOC(=O)c1cc(NC(=O)OC)c(C)nc1C,-5,i,-14,/,8,1,1,-5,
Cc1ccccc1S(=O)(=O)NC(=O)C1(C)CCN1C(=O)C1CCCCC1 (stereo not drawn),/,/,/,-4,/,0,4,-12,
C[C@@H]1CN([C@@H](C)CO)C(=O)CCCn2nncc2CO[C@@H]1CN(C)C(=O)Nc1ccccc1C(F)(F)F,/,/,/,-24,/,8,6,8&-2,
O=C(Nc1ncccn1)C1CCCN1S(=O)(=O)c1ccc(Cl)c(Cl)c1 (stereo not drawn),1,i,2,/,-10,1,-1,-4,
C/C(=N\NC(=O)c1cccc(Cl)c1)C1C(=O)c2ccccc2C1=O,5,i,93*,57*,1,-1,-18,-3,
Cc1cccc(C)c1NC(=O)CN(C)C(=O)c1ccc(N2C(=O)CCC2=O)cc1,/,i,6,-6,/,3,5,-9,
CN(C)c1ccc(/C=N/OC(=O)Nc2ccccc2)cc1,-11,i,26,-98,5,0,2,-55,
C/C(=N/NC(=O)c1ccccc1)C(=O)O,4,i,-3,14,-4,-4,1,/,
COc1ccccc1C(=O)N/C(=C/c1ccco1)C(=O)Nc1cccc(C(=O)O)c1,67*,i,-6,4,49*,-5,4,18,eIF4H FP inh retest=78*;PABP FP inh retest=56*
CCCCN1C(=O)C(=O)N(CC(=O)c2cc(C)n(-c3cc(C)on3)c2C)C1=O,/,/,3,8,/,1,2,/,
COCCn1c(-c2ccccc2)cnc1N,1,i,13,-78,-1,4,3,-38,
CC(=O)OCC1OC(OCc2cn(C[C@H]3CC[C@H](Cn4cc(COC5OC(COC(C)=O)C(OC(C)=O)C(OC(C)=O)C5OC(C)=O)nn4)O3)nn2)C(OC(C)=O)C(OC(C)=O)C1OC(C)=O (stereo partly drawn),-2,i,2,0,-6,-1,5,-8,
O=C1COc2ccc(C(=O)COC(=O)CCc3ccc(S(=O)(=O)N4CCOCC4)cc3)cc2N1,-1,i,2,/,0,2,5,-1,
CC(=O)c1cccc(NC(=O)NC2CCCc3ccccc32)c1 (stereo not drawn),-3,/,-3,2,-8,-5,-5,/,
CCCOc1ccc(-c2nc(OCC)c3ccccc3n2)cc1,-1,i,34,9,8,1,-3,-5,
CCc1nc2ccc(C(=O)N(C)Cc3ccco3)cn2c1N(C)CCCc1ccccc1,/,/,/,23,/,-7,-7,-14,
CC(=O)Nc1ccccc1NC(=O)C/C(C)=N/NC(=O)Cc1cccc2ccccc12,-17,i,1,-2,-3,4,8,-8,
CCOn1c(=O)c(=O)n(O)c2ccccc21,2,i,7,6,10,1,3,/,
N#Cc1c(Nc2ccc(Cl)cc2)s[nH]c1=O,2,i,8,-10,-13,-9,-3,/,
Clc1cccc(CNc2ccn3nc(-c4ccc(OCc5ccccc5)cc4)cc3n2)c1,/,/,/,47,/,-2,-17,-24,
Cn1c2ccccc2c(=O)c2cc(C#CC3=CCCCC3)ccc21,/,/,32,-62,/,-5,2,-14,
O=C(Nc1cccc(Cl)c1)C1C2CCC3C(CCC21)C3(Cl)Cl (stereo not drawn),-12,i,-13,10,2,-5,-8,/,
Cc1ncn(C23CC4CC(CC(C4)C2)C3)n1,-2,i,-4,-19,-2,2,0,/,
CCOc1ccc(CNC(=O)c2ccc(Sc3ccc(C)cc3)c(NC(C)=O)c2)cc1,-2,i,16,-13,2,4,-7,/,
O=C(O)c1cc2nccc(-c3ccco3)n2n1,8,i,-8,15,18,-2,4,-12,
Cc1cc(C)c(C(=O)N2CCC(N3CCC(C(=O)NC(C)C)CC3)CC2)o1,24,i,-11,10,13,-5,4,3,

# Molecules shown so far that contain a COOH group:
SMILES,eIF4H FP inh,Rce1 inh,CSC inhib,Env fusion inh,PABP FP inh,MT1-MMP act inh,MT1-MMP act inh RFP,Yeast UUG start,others
CCC(Sc1nc2ccsc2c(=O)n1Cc1ccc(C(=O)O)cc1)C(=O)Nc1cccc(OC)c1 (stereo not drawn),/,/,/,3,/,4,-4,1,
Cc1ccccc1S(=O)(=O)Cc1ccc(C(=O)O)o1,-4,i,-6,/,18,-1,1,5,
Cc1ccccc1NC(=O)c1cccc(NC(=O)c2c(C(=O)O)cccc2[N+](=O)[O-])c1,/,i,-6,-7,/,2,2,/,
O=C(O)/C=C/c1ccc(Cn2ccnc2)cc1,/,i,-5,12&24,/,2&1,6&7,2&-17,
CC(C)(C)OC(=O)N[C@@H](Cc1ccccc1)C(=O)N1CCC(C(=O)O)CC1,0,i,3,/,-2,-1,3,3,
C/C(=N/NC(=O)c1ccccc1)C(=O)O,4,i,-3,14,-4,-4,1,/,
COc1ccccc1C(=O)N/C(=C/c1ccco1)C(=O)Nc1cccc(C(=O)O)c1,67*,i,-6,4,49*,-5,4,18,eIF4H FP inh retest=78*;PABP FP inh retest=56*
O=C(O)c1cc2nccc(-c3ccco3)n2n1,8,i,-8,15,18,-2,4,-12,

# Source: PubChem BioAssay
